Assay outcomes as filed in PubChem.
HNF4A DNA FP: change in binding of human HNF4 alpha to DNA; P41235; HNF4a-FITC DNA binding, fluorescence polarization, 1 h; activity change, % at 10 µM; 360,000 compounds, 0.3% hits; AID 1224865; in the data active = activity change above about 30%, passing the limit was not always enough;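 also: controls were the assay level and a saturating level of protein; the project sought stronger binding though the title names inhibitors; some compounds called inactive have numbers as strong as hits; positive values seem to mean higher polarization but the record does not say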
Target sequence (P41235 whole entry, looked up): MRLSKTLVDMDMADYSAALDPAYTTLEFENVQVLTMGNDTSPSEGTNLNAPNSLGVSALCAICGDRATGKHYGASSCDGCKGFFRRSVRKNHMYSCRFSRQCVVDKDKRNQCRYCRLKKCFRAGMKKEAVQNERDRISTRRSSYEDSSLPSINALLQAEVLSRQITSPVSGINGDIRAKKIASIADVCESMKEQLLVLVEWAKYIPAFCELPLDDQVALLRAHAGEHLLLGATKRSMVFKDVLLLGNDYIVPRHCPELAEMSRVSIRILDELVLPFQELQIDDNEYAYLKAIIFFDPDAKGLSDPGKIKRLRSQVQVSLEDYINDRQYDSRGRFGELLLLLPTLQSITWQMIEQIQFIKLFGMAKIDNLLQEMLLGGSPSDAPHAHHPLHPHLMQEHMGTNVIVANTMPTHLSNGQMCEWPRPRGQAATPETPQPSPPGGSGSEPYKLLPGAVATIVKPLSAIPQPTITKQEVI
E coli growth: inhibitors of Escherichia coli growth. AID 1053175. OD600 absorbance (concentration not given with the values). 330,000 compounds, 0.21% hits. OD600, 23 h; stronger effect = lower value;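 active = OD600 absorbance below the run mean of sample wells minus 3.6 SD, in any replicate, cut at about 0.56 in these data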;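 also: stock transfer was 300 nL into about 60 µL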
FGF22 binding: binders of recombinant human FGF22 by thermal shift; Q9HCT0; SYPRO orange fluorescence; percent of sucrose octasulfate shift, DMSO zero; calls only at 9.99 µM; 340,000 compounds, 1.5% hits; AID 651658;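 active = melting point raised past a set limit in the mean and every replicate; three in four hits are not shown here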
Target sequence (Q9HCT0 whole entry, looked up): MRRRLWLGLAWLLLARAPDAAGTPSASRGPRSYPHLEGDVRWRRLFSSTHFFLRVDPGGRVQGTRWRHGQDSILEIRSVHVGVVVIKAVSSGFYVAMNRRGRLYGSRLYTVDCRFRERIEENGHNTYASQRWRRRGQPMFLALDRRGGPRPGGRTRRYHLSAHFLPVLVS
Beta2AR agonist: activates human beta-2 adrenergic receptor causing internalization. P07550. Am2.2-beta2AR cells, FAP receptor internalization, flow cytometry; reference of the scale not given here. response, % (concentration not given with the values). 340,000 compounds, 0.43% hits. AID 504454;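 active = response above a set limit, near 3 SD of response in nonfluorescent compounds, cut at about 42% in these data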;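 also: stock transfer was 100 nL into about 11 µL; a reference agonist was the positive control; negative values mostly stem from fluorescent compounds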
ALR H2O2 inh: inhibitors of human sulfhydryl oxidase ALR; P55789; purified ALR, DTT oxidation, H2O2 HRP-luminol luminescence; inhibition, % (no concentration beside the values); 290,000 compounds, 3.8% hits; AID 485317;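 active = mean and each replicate at 75% or more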;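 also: stock transfer was 7.5 nL into about 7.5 µL; 0% = neutral wells and 100% = wells with inactivated enzyme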
Ecoli rRNA inh: inhibits bacterial ribosomal RNA function over humanized ribosomes; E. coli WT GFP vs humanized-ribosome RFP mutants, fluorescence, 24 h; stronger effect = lower value; DMSO median 0, no signal -100; GFP signal change (wild-type ribosome), % (test concentration not listed); 350,000 compounds, 1.6% hits; AID 720706;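 active = significant combined selectivity score with lowered wild-type GFP, culture density cut under 30%, mutant RFP and density less affected; inactive = any of these conditions unmet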; also: one replicate is shown; some compounds called inactive have numbers as strong as hits
UCH37 inh: inhibitors of human deubiquitinating enzyme UCH37; purified proteasome/UCH37, Ub-AMC cleavage fluorescence; inhibition, % (no concentration beside the values); 330,000 compounds, 0.33% hits; AID 588478;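 active = mean of two replicates above 20%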;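 also: 0% = compound-free wells with enzyme and 100% = wells lacking proteasome; stock transfer was 100 nL into about 20 µL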
Target sequence (Q9Y5K5 whole entry, looked up): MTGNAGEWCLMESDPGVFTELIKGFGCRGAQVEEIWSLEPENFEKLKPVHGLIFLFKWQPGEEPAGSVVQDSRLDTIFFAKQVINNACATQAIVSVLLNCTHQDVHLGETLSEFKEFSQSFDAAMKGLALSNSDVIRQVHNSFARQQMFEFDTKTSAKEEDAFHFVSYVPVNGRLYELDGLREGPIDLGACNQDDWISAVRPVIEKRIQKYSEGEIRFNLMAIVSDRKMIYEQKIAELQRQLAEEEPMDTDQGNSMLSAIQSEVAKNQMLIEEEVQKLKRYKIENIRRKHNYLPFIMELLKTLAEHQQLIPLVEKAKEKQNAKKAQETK
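assay system = human UCH37 enzyme supplied as purified proteasome complex | amount = proteasome at 0.15 nM in the dispensed enzyme solution | schedule = 30 min compound-proteasome preincubation then 25 min substrate reaction, room temperature | measured by = fluorescence, ex 355 nm, em 460 nm | benchmarks = no-proteasome wells (full inhibition) and compound-free wells (no inhibition)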
Ecoli rRNA inh OD600: further read-out of Ecoli rRNA inh, marked with its call; OD600 change, %; measured here: OD600 growth;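 optical density of the mix in the first replicate; 0 = DMSO median and -100 = no signal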
Ecoli rRNA inh RFP: second read-out of Ecoli rRNA inh, no call of its own (marks repeat the call); RFP signal change, %; measured here: RFP humanized mutant strains;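 first replicate; 0 = DMSO median and -100 = no signal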
* marks the source's active call; other numbers are inactive results; i = inactive; nt = no result given; & = joins results of further samples. An excerpt (hit frequency here may not be typical).

SMILES	HNF4A DNA FP	E coli growth	FGF22 binding	Beta2AR agonist	ALR H2O2 inh	Ecoli rRNA inh	Ecoli rRNA inh OD600	Ecoli rRNA inh RFP	UCH37 inh
CCN1C(=O)[C@H]2[C@@H](c3ccc(-c4ccc5c(c4)OCO5)c(OC)c3)N[C@@](Cc3ccccc3)(C(=O)OC)[C@H]2C1=O	3.2	nt	i	7	1	11	6	4.0	5.2
CCOCCCn1c(=S)[nH]c2cc(C(=O)N3CCC(C(N)=O)(N4CCCCC4)CC3)ccc2c1=O	-2.8	0.69	i	-12	44	2	4	-10	5.0
O=C(CCn1c(=S)oc2ccccc21)N1CCN(c2ccc(F)cc2)CC1	1.6	0.68	i	-6	33	-32	-34	-6.9	5.7
Cc1ccc(C(=O)Nc2cccc(C(F)(F)F)c2)cc1NC(=O)c1nccnc1N	0.2&-6.4	0.71	i	-2	-8	10&7	15&17	2.5&-4.5	0.2
Cc1cccc(C)c1NC(=O)COc1ccc2c(C)c(Cc3ccccc3)c(=O)oc2c1C	0.7	0.72	i	-1	-22	9	-2	-2.7	-1.7
CCC(=O)N1CCCC(C(=O)Nc2nc3ccccc3n2C)CC1 (configuration not stated)	0.4	nt	i	nt	nt	3	7	3.5	nt
COc1cc(C(=O)Nc2cc(S(C)(=O)=O)ccc2Cl)ccc1OCC(=O)N1CCOCC1	1.0	0.67	i	8	nt	nt	nt	nt	-0.1
Cc1ccc(NC2c3ncccc3C(=O)N2Cc2cccs2)cc1 (configuration not stated)	4.8	0.68	i	-6	nt	8	1	0.8	0.3
Cc1ccc(N(CC(=O)NCc2ccco2)C(=O)CNS(=O)(=O)c2ccccc2)c(C)c1	1.2	0.68	i	5	-4	0	-2	0.8	0.6
COC(=O)c1ccccc1S(=O)(=O)N1CCC(C(=O)N2CCC2)CC1	5.6	0.7	i	0	0	2	1	-0.4	5.7
O=C1CNC(=S)N1C1CCCCCC1	-1.2	0.65	i	2	6	6	5	5.9	0.0
COc1ccc(S(=O)(=O)N2CCCCC2)cc1NC(=O)CCc1cc(OC)c(OC)c(OC)c1	3.0	0.71	i	-3	nt	11	12	-1.2	1.4
O=C(N/N=C/c1ccoc1)c1ccccc1O	-15	nt	i	4	4	14	9	0.4	nt
C1CCN2C[C@@H]3C[C@@H](CN4CCCC[C@@H]34)[C@H]2C1	3.4	nt	i	-2	nt	6	11	-0.8	nt
CCOC(=O)CNC(=O)N1CCCC(CCC(=O)NCc2ccc(F)c(F)c2)C1 (configuration not stated)	-3.3	0.7	nt	0	-27	nt	nt	nt	1.9

Some of these compounds in order of their number in Ecoli rRNA inh, rising.
Structure | HNF4A DNA FP | E coli growth | FGF22 binding | Beta2AR agonist | ALR H2O2 inh | Ecoli rRNA inh | Ecoli rRNA inh OD600 | Ecoli rRNA inh RFP | UCH37 inh
Cc1ccc(N(CC(=O)NCc2ccco2)C(=O)CNS(=O)(=O)c2ccccc2)c(C)c1 | 1.2 | 0.68 | i | 5 | -4 | 0 | -2 | 0.8 | 0.6
C1CCN2C[C@@H]3C[C@@H](CN4CCCC[C@@H]34)[C@H]2C1 | 3.4 | nt | i | -2 | nt | 6 | 11 | -0.8 | nt
Cc1cccc(C)c1NC(=O)COc1ccc2c(C)c(Cc3ccccc3)c(=O)oc2c1C | 0.7 | 0.72 | i | -1 | -22 | 9 | -2 | -2.7 | -1.7

More entries:
SMILES	HNF4A DNA FP	E coli growth	FGF22 binding	Beta2AR agonist	ALR H2O2 inh	Ecoli rRNA inh	Ecoli rRNA inh OD600	Ecoli rRNA inh RFP	UCH37 inh
COc1cc(/C=N/NC(=O)COc2ccc(Cl)cc2)ccc1OS(=O)(=O)c1ccc(C)cc1	-2.5	nt	nt	4	-4	nt	nt	nt	nt
COc1ccccc1NC(=S)NCCc1ccc(OC)c(OC)c1	2.3	0.69	i	2	-1	9	-4	-2.4	4.0
O=C(O)CSc1ncnc2c1sc1nc(-c3ccccc3)c3c(c12)CCC3	2.7	0.65	i	3	12	-4	0	-2.9	4.8
CCCc1nnc(SCC(=O)N2CCOCC2)n1C	0.0	0.8	nt	2	1	nt	nt	nt	0.3
CCNC(=S)N/N=C(\C)c1ccc(Cl)s1	-3.1	nt	nt	-7	-3	nt	nt	nt	nt
Cn1nccc1C(=O)NC1CCN(Cc2ccccc2)CC1	-1.0	0.66	i	-5	9	13	30	3.0	-0.4
COc1ccc2c(c1)C(NS(=O)(=O)OCC(Cl)(Cl)Cl)CCC2 (configuration not stated)	0.7	0.65	i	-2	-2	-28	-59	-3.9	4.2
Cc1ccc2c(c1)S/C(=C/c1ccc[n+](C)c1)N2CCO	0.5	0.7	i	-81	40	64	20	-1.9	11
CCc1c(C)sc(NC(=S)Nc2cccnc2)c1C(=O)OC	1.3	0.64	i	-3	29	-14	-18	13	3.3
Cc1ccc(N2CC(C(=O)N3CCC4(CC3)CC(=O)c3ccccc3O4)CC2=O)cc1 (configuration not stated)	1.4	0.68	i	8	-4	-9	-16	1.4	-25
CN(C)S(=O)(=O)Nc1ccc(Cc2ccncc2)cc1	1.5	nt	i	nt	nt	10	9	1.0	nt
CCN(CC)C(=O)C1CCN(S(=O)(=O)c2c(C)noc2/C=C/c2cccc(C)c2)CC1	1.7	0.74	i	-2	-3	-1	-8	-2.0	4.1
O=[N+]([O-])c1cc(S(=O)(=O)Nc2cccc(C(F)(F)F)c2)ccc1-n1nnc2ccccc21	-0.2	0.7	nt	-1	-14	nt	nt	nt	2.1
S=C(NCc1ccc(Cl)cc1)NC1CCCCC1	-3.5	0.64	nt	-3	nt	nt	nt	nt	2.3
Cc1ccn(C(=O)c2ccc(NC(=O)CC(C)C)cc2)n1	-3.2	nt	nt	2	0	nt	nt	nt	nt
O=C(N/N=C/c1cccnc1)c1ccc(S(=O)(=O)N2CCCCCC2)cc1	2.2	nt	nt	-1	-1	9	-3	-4.1	nt
O=C(CN1CCSCC1)N/N=C/c1cccc(Cl)c1	4.3	nt	i	-3	-16	-4	1	-1.3	nt
O=C(NCc1ccco1)C1(S(=O)(=O)c2ccccc2)CC=CC1	-2.1	0.7	i	-11	-7	12	12	-3.5	0.7
Cc1cc(C)n2nc(-c3ccc(Cl)cc3)cc2n1	-0.4	0.68	i	-28	-3	-2	0	-2.4	-54
CC(=O)C1=C(O)C(=O)N(c2cc(C(C)(C)C)on2)C1c1ccc(Br)cc1 (configuration not stated)	2.1	0.7	nt	-2	40	nt	nt	nt	-6.5
C=CCn1c2ccccc2c2nnc(SCc3ccc4nonc4c3)nc21	-1.0	0.7	nt	4	-3	nt	nt	nt	-2.1
COc1ccc(C2c3cc4c(cc3OC(N3CCOCC3)C2C)OCO4)c(OC)c1 (configuration not stated)	2.2	nt	i	7	nt	-49	-72	-13	nt
COc1ccc(C(=O)Nc2ccc(Br)cn2)cc1S(=O)(=O)N1CCOCC1	1.1	0.66	i	7	-5	-4	-3	-2.1	3.3
COC(=O)c1ccccc1NC(=O)C1CC(=O)N(C2CCCCC2)C1 (configuration not stated)	1.1	0.66	nt	-6	2	nt	nt	nt	6.8
CCCOc1ccc(NC(=O)CC2Nc3ccccc3NC2=O)cc1 (configuration not stated)	-3.5	0.63	i	-6	-3	-28	-26	-3.1	0.2
CCN1CCN(C(c2ccccc2)c2nnnn2C(C)(C)C)CC1 (configuration not stated)	-1.5	nt	i	nt	nt	14	-2	2.5	nt
O=C(O)c1cccc2c(/C=N/Nc3ccccn3)c[nH]c12	-0.6	nt	nt	3	98*	nt	nt	nt	nt
CN(CC(=O)Nc1ccccc1Cl)C(=O)COC(=O)c1nc(Cl)c(Cl)c(Cl)c1Cl	1.6	0.7	i	0	13	-18*	-12*	3.7*	3.4
O=C(Nc1ccc(O)c(C(=O)O)c1)c1ccc2c(c1)C(=O)N(CC1CCCO1)C2=O (configuration not stated)	-2.2	0.71	nt	-5	0	nt	nt	nt	1.6
CCOC(=O)N1CCN(c2c(NCCc3ccc(OCC)c(OCC)c3)c(=O)c2=O)CC1	1.9	0.69	i	0	0	-5	3	-12	-0.1
Cc1ccc(S(=O)(=O)N(C)C[C@H]2Oc3c(NC(=O)Nc4cccc5ccccc45)cccc3C(=O)N([C@@H](C)CO)C[C@@H]2C)cc1	3.8	0.71	i	3	nt	-6&1	-5&-2	-2.7&5.2	4.9
COc1cc(NC(=O)Cn2cnc3sc(C)c(S(=O)(=O)N4CCN(C)CC4)c3c2=O)cc(OC)c1OC	nt	0.65	nt	nt	-5	nt	nt	nt	4.7
CCOC(=O)c1cc(-c2ccccc2)sc1NC(=S)Nc1cc(C)ccn1	47*	nt	nt	2	-22	nt	nt	nt	nt
COC(=O)c1sc(S(=O)(=O)N2CCC(C)CC2)c(C(=O)OC)c1C	-2.0	0.73	nt	5	-3	nt	nt	nt	2.2
CN(C)CCSc1nc(-c2ccccc2)nc2c1CCCC2	-1.9	0.66	i	-8	2	-17	-8	-0.1	5.8
C/C(=N\NC(=O)CSCc1ccc(Cl)cc1)c1ccc(NC(=O)c2ccccc2)cc1	-1.8	nt	nt	-7	-14	nt	nt	nt	nt
COc1ccc(-n2c(CN3CCN(c4ccccc4)CC3)nc3ccc([N+](=O)[O-])cc3c2=O)c(OC)c1	3.8	0.71	i	-13	-20	12	17	2.2	5.4
C#CCSc1nc(-c2ccccc2)cc(C(F)(F)F)c1C#N	-3.4	0.7	nt	-6	-6	nt	nt	nt	-14
CCCCOc1ccc(C(=O)N(C)CC(=O)Nc2ccc(C)cc2)cc1	-3.8	0.7	i	-9	-17	8	4	0.4	1.4
CCOc1ccc(-c2nn[nH]n2)cc1OCC	1.1	0.7	nt	-1	-8	nt	nt	nt	3.8
O=C(c1cc([N+](=O)[O-])ccc1Cl)N1c2ccccc2Sc2ccccc21	3.0	0.68	i	-25	-9	1	-3	-6.9	2.4
COc1ccc(NC(=O)c2c(C)oc3c2CCCC3)cc1	0.1	0.71	i	-3	0	-14	-12	-5.0	0.9
Cc1ccc(OCCN(C)C(=O)CC2C(=O)NCCN2CC(C)(C)C)cc1 (configuration not stated)	-2.4	0.66	i	-7	-19	3	3	1.1	-13
Cc1cc2nc3s/c(=C/c4ccc(-c5ccccc5C(=O)O)o4)c(=O)n3c2cc1C	78	nt	i	-98	67	-1	1	-2.3	nt
COc1ccc(N2C(=NC(=O)C3CCCCC3)SC3CS(=O)(=O)CC32)cc1Cl (configuration not stated)	-3.0	0.69	i	-3	-3	1	5	-4.2	2.6
COc1ccc(CN(C)C(=O)c2cccc(C(=O)N(C)Cc3ccc(OC)cc3)c2)cc1	0.6	0.69	i	-8	-3	2	2	-0.2	4.0
Cc1ccc(NC(=O)Cn2nnc(C(=O)NCCc3ccccc3)c2N)cc1Cl	3.4	0.63	i	4	2	14	16	1.1	2.7
Cc1ccc(S(=O)(=O)NCCC(=O)OCC(=O)N(Cc2ccccc2)C(C)(C)C)cc1	-0.2	0.67	i	2	-10	13	10	-1.2	4.6
CC(CNC(=O)c1cc(Cl)ccc1[N+](=O)[O-])NC(=O)c1cc(Cl)ccc1[N+](=O)[O-] (configuration not stated)	1.7	0.74	nt	-29	-15	nt	nt	nt	3.0
Cc1ccc(NC(=O)CSc2nc3ccccc3c3nc(CCc4c(C)n[nH]c4C)nn23)cc1F	1.5	0.69	nt	5	-3	nt	nt	nt	-0.1
CCOC(=O)/C=C/C(=O)OCC(=O)Nc1cccc(Cl)c1Cl	2.3	0.65	i	6	13	7	4	-2.7	1.8
COCCNc1nc(NCCCN2CCCC2=O)c2sccc2n1	2.1	nt	i	nt	nt	8	16	-2.0	nt
Cc1cccc2cc(C(c3nnnn3C3CCCC3)N3CCOCC3)c(=O)[nH]c12 (configuration not stated)	1.6	0.67	nt	-9	5	nt	nt	nt	-4.1
Cc1ccc(/C=N/n2c(C)nnc2C)cc1	-2.2	nt	nt	10	-2	nt	nt	nt	nt
